Screening data (PubChem)
YopH PTP inh – blocks Yersinia enterocolitica YopH tyrosine phosphatase | fluorescence Ex485/Em525 | inhibition, %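 (about 10 µM by stock and volumes)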 | hit rate 0.16% among 140,000;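 active means inhibition of 50% or more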;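 further: controls were vehicle for no effect and minimum signal wells for full effect; inactives centre near -20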
Arbovirus anti – blocks arbovirus infection; arbovirus infection cell-based antiviral screen; inhibition, % at 10 µM; hit rate 0.37% among 200,000; AID 1251;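 active means inhibition from about 30%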;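 further: bluetongue infection of BSR cells; cell survival read as ATP light after 72 h; 0% = infected wells without compound and 100% = uninfected wells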
Mtb betalactam – beta-lactam sensitization of Mtb H37Rv; AID 434955; inhibition, % at 25 µM; M. tuberculosis H37Rv growth with meropenem, percent inhibition; hits of this screen are not shown here; hit rate 0.27% among 330,000;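 active means about 74% or more and at least 40 points above the plate without the antibiotic, then above 30% in a dose series; inconclusive means first-round hits that could not be retested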;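 further: growth measured after seven days incubation then overnight dye step; 0% = bacteria only wells and 100% = bacteria with antibiotic; twin plates without the antibiotic show which effects depend on it; some results filed as inactive read as strong as hits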
Mtb H37Rv – M. tuberculosis H37Rv growth inhibitors, H37Rv strain (AID 1626). M. tuberculosis H37Rv growth inhibition; higher % means a stronger effect. inhibition, % at 10 µM; hits with a dose series show IC50 in µM. hit rate 0.95% among 220,000;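 active means confirmed in a dose series; inconclusive means inhibition above 80% but not taken into the dose series; inactive means below 80% or under 30% at every dose of the series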;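 further: bacteria incubated seven days before Alamar blue readout; 0% = bacteria only wells and 100% = bacteria with antibiotic wells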
RecA intein inh – Mtb RecA intein splicing inhibition; inhibition, %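 (about 9 µM by stock and volumes)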; P9WHJ3; cell-free RecA intein splicing, fluorescence; hit rate 0.75% among 290,000; in the data active means inhibition above about 30%; inconclusive means no clear call, values can overlap the other calls;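 further: 0% = vehicle wells and 100% = reference inhibitor control wells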
Target sequence (P9WHJ3 whole entry, looked up): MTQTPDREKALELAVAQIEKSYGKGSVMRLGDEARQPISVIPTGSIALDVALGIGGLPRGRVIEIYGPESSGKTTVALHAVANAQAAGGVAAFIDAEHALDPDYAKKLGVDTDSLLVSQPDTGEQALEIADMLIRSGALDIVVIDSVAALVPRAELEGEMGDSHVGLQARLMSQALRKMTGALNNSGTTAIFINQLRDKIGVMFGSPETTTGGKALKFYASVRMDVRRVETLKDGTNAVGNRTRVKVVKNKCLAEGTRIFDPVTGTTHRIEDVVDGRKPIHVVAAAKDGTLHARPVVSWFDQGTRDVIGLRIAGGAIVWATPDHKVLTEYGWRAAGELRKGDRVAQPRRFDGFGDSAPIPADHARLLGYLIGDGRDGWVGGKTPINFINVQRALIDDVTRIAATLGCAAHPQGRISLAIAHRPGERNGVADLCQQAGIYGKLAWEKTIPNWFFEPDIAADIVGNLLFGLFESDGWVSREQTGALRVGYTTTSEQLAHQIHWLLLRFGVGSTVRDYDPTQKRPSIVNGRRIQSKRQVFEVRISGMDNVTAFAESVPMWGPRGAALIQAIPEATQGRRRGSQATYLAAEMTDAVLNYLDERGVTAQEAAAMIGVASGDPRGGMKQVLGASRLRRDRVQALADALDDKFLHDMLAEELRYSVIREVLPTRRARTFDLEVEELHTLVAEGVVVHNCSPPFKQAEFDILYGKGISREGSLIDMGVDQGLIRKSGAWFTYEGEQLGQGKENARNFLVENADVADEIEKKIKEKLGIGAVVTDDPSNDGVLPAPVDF
The depositor's hits bear a star; & = joins results of further samples.

O=C(c1ccc(=O)oc1)N1CCN(C(c2ccccc2)c2ccccc2)CC1 was read as YopH PTP inh -35, Arbovirus anti 7, Mtb betalactam -10, Mtb H37Rv -6% and RecA intein inh 1.3.
For COc1ccc(CN(C)C(=O)c2ccc(COc3ccccc3)cc2)c(OC)c1 the results were Mtb betalactam 8 and RecA intein inh 15.
CC(C)(C)c1ccc(OCCC(=O)OCC(=O)NCc2ccccc2)cc1 was read as Mtb betalactam 9 and RecA intein inh -1.9.
Screening COc1ccc(C(=O)NCc2nnc(SCC(=O)NC3CCCCC3)o2)cc1 returned Mtb betalactam 1 and RecA intein inh 4.9.
For Cc1cc(NC(=O)CSc2ccc(F)cc2)no1 the results were Arbovirus anti 0, Mtb betalactam -4, Mtb H37Rv 8% and RecA intein inh -0.9.
For O=C(c1cnn2c(C(F)F)cc(-c3ccccc3)nc12)N1CCc2ccccc2C1 the results were Arbovirus anti -19, Mtb betalactam 96 and Mtb H37Rv 5%.
For CCN(CC)c1ccc(C(=O)c2cnc(/N=C/N(C)C)s2)cc1 the results were Arbovirus anti -16, Mtb betalactam 6, Mtb H37Rv 0% and RecA intein inh -1.8.
CC(=O)Nc1ccc(/C(C)=N/Nc2nc(Nc3ccccc3)nc(N3CCOCC3)n2)cc1 was read as Arbovirus anti -15, Mtb betalactam 34, Mtb H37Rv -3% and RecA intein inh -7.4.
Cc1n[nH]c(C)c1S(=O)(=O)N1CCCC(C(=O)N2CCN(c3ccc(Cl)cc3)CC2)C1 (centres undefined) was read as YopH PTP inh -48, Arbovirus anti -1, Mtb betalactam 0 and Mtb H37Rv 6%.
Screening CCS(=O)(=O)N1CCN(c2ccc([N+](=O)[O-])c(NCC3CCCO3)c2)CC1 (centres undefined) returned Arbovirus anti 0, Mtb betalactam -3, Mtb H37Rv 9% and RecA intein inh -0.8.
Screening Cc1cccc(C)c1NC(=O)CCCN1CC(C)OC(C)C1 (centres undefined) returned YopH PTP inh -19, Arbovirus anti 1, Mtb betalactam -6, Mtb H37Rv -4% and RecA intein inh 1.5.
For COCC(=O)N1CCC(Oc2ccc(C(=O)NC(C)c3nc(C)sc3C)cc2)CC1 (centres undefined) the results were Mtb betalactam -1 and RecA intein inh -2.0.
O=C(Nc1c(C(=O)N2CCN(c3ccccn3)CC2)oc2ccccc12)c1ccc([N+](=O)[O-])cc1 was read as Mtb betalactam -6 and RecA intein inh -2.6.
For Nc1ncc(-c2ccccc2)c(-c2ccc(OCc3ccccc3)cc2O)n1 the results were Mtb betalactam -5, Mtb H37Rv -5% and RecA intein inh -2.2.
CCCCCCC1CC(CCC(=O)Nc2ccc([N+](=O)[O-])cc2)C(=O)O1 (centres undefined) was read as YopH PTP inh -39, Arbovirus anti 2, Mtb betalactam 57, Mtb H37Rv -9% and RecA intein inh -3.5.
`CCCCOP(=O)(c1ccc(N(C)C)cc1)C(Nc1ccccc1)c1ccccc1` (centres undefined) gave YopH PTP inh 24, Arbovirus anti -28, Mtb betalactam -5, Mtb H37Rv 14% and RecA intein inh 22.
Screening O=C(Nc1nnc(-c2ccccc2F)s1)c1cccnc1 returned Arbovirus anti -1, Mtb betalactam -5, Mtb H37Rv -5% and RecA intein inh 0.1.
Screening CC1CC(=O)Nc2ccccc2N1C(=O)Nc1ccccc1 (centres undefined) returned Mtb betalactam -4, Mtb H37Rv -6% and RecA intein inh -0.6.
CCN1CCN(C(=O)C2CCN(c3nnc(-n4c(C)ccc4C)s3)CC2)CC1 was read as Mtb betalactam inconclusive and RecA intein inh 0.4.
CSc1c(CC(=O)NCCO)n(C)c2ccccc12 was read as YopH PTP inh -25, Arbovirus anti -2, Mtb betalactam 3, Mtb H37Rv -3% and RecA intein inh -0.9.
For CCN1CCc2c(OCC(=O)Nc3cccc(C)c3C)cccc2C1=O the results were Arbovirus anti -11, Mtb betalactam 3, Mtb H37Rv -6% and RecA intein inh -3.2.
For COC(=O)c1ccc2c(=O)n(Cc3ccc4c(c3)OCO4)c(SCC(=O)N3CCCC3)nc2c1 the results were Mtb betalactam -11, Mtb H37Rv -7% and RecA intein inh -1.1.
For CC1CCCCC1NC(=O)CN1CCC(O)(c2ccc(F)cc2)CC1 (centres undefined) the results were YopH PTP inh 14, Arbovirus anti -2, Mtb betalactam -3, Mtb H37Rv 5% and RecA intein inh 1.8.
Cc1ccc(NC(=O)CCC(=O)NNC(=O)COc2ccc([N+](=O)[O-])cc2)cc1C was read as Mtb betalactam 84 and RecA intein inh -3.3.

Reprinted from the part before: two entries, then new ones.
For CC1CCCCC1NC(=O)CN1CCC(O)(c2ccc(F)cc2)CC1 (centres undefined) the results were YopH PTP inh 14, Arbovirus anti -2, Mtb betalactam -3, Mtb H37Rv 5% and RecA intein inh 1.8.
Cc1ccc(NC(=O)CCC(=O)NNC(=O)COc2ccc([N+](=O)[O-])cc2)cc1C was read as Mtb betalactam 84 and RecA intein inh -3.3.
Screening CCOc1cc(C)c(Cl)cc1S(=O)(=O)N1CCCC1 returned YopH PTP inh -21, Arbovirus anti 4, Mtb betalactam -3, Mtb H37Rv -4% and RecA intein inh -1.6.
CCOC(=O)c1cnc(-n2nc(C)cc2C)nc1NNc1nc(-c2ccccc2)cc(-c2ccccc2)n1 was read as YopH PTP inh -42, Arbovirus anti -19, Mtb betalactam 100, Mtb H37Rv inconclusive and RecA intein inh 0.2.
COc1ccc(/C=N/Nc2cn[nH]c(=O)c2Cl)cc1 was read as Arbovirus anti 7, Mtb betalactam 2, Mtb H37Rv 12% and RecA intein inh -1.0.
COC(=O)C1=C(C)NC=C([N+](=O)[O-])C1c1ccc(OC)cc1 (centres undefined) was read as YopH PTP inh -8, Arbovirus anti -2, Mtb betalactam -1, Mtb H37Rv 3% and RecA intein inh -0.5.
Screening CN1C(=O)C(=O)/C(=C(/O)c2ccc(Br)cc2)C1c1ccc(F)cc1 (centres undefined) returned Mtb betalactam -2 and RecA intein inh 0.5.
Screening CCCCn1c2nc3ccccc3nc2c2c(=O)n(-c3ccccc3)cnc21 returned YopH PTP inh -2, Arbovirus anti 12, Mtb betalactam -4, Mtb H37Rv 12% and RecA intein inh 1.0.
Screening O=c1c(/C=N\NS(=O)(=O)c2ccccc2)coc2ccc(Cl)cc12 returned Mtb betalactam 9 and RecA intein inh 4.3.
Screening CCOC(=O)C1C(=O)C(C(C)=O)C(=O)CC1CC(C)SCC (centres undefined) returned YopH PTP inh -17, Arbovirus anti 2, Mtb betalactam 6, Mtb H37Rv 6% and RecA intein inh -1.5.
For COc1ccc(-c2cn3cccnc3n2)cc1NS(=O)(=O)c1ccccc1 the results were Arbovirus anti -10, Mtb betalactam 5, Mtb H37Rv 3% and RecA intein inh -4.3.
For CN1OC(c2ccccc2)=C(CO)C1c1ccccc1 (centres undefined) the results were YopH PTP inh -33, Arbovirus anti -2, Mtb betalactam 1, Mtb H37Rv -1% and RecA intein inh -2.5.
`Cc1ccc(C2=NN(C(=O)CCC(=O)O)C(c3cccc([N+](=O)[O-])c3)C2)cc1` (centres undefined) gave Mtb betalactam -8 and RecA intein inh -4.6.
O=C(CCc1nnc(Cc2ccc(-c3ccccc3)cc2)o1)N1CCCC1 was read as Arbovirus anti 4, Mtb betalactam 3, Mtb H37Rv 0% and RecA intein inh 2.2.

Sorted by count of non-hydrogen atoms (rising): 4 of the compounds above
Screening CCOC(=O)C1C(=O)C(C(C)=O)C(=O)CC1CC(C)SCC (centres undefined) returned YopH PTP inh -17, Arbovirus anti 2, Mtb betalactam 6, Mtb H37Rv 6% and RecA intein inh -1.5.
O=C(CCc1nnc(Cc2ccc(-c3ccccc3)cc2)o1)N1CCCC1 was read as Arbovirus anti 4, Mtb betalactam 3, Mtb H37Rv 0% and RecA intein inh 2.2.
Screening CCCCn1c2nc3ccccc3nc2c2c(=O)n(-c3ccccc3)cnc21 returned YopH PTP inh -2, Arbovirus anti 12, Mtb betalactam -4, Mtb H37Rv 12% and RecA intein inh 1.0.
CCOC(=O)c1cnc(-n2nc(C)cc2C)nc1NNc1nc(-c2ccccc2)cc(-c2ccccc2)n1 was read as YopH PTP inh -42, Arbovirus anti -19, Mtb betalactam 100, Mtb H37Rv inconclusive and RecA intein inh 0.2.

The results go on:
Screening CC(OC(=O)CNC(=O)c1cccc(F)c1)C(=O)NC1CCCCC1C (centres undefined) returned Mtb betalactam -8 and RecA intein inh -0.9.
COc1ccc(NC(=O)C2C3CCC4C(CCC32)C4(Cl)Cl)cc1 (centres undefined) was read as YopH PTP inh -12, Arbovirus anti -2, Mtb betalactam -6, Mtb H37Rv -3% and RecA intein inh -3.8.
Screening COc1ccc(OCc2cc(C(=O)NC3CCOC(C)(C)C3)no2)c2ccccc12 (centres undefined) returned Mtb betalactam 3 and RecA intein inh 54*.
For O=C1COc2ccc(C(=O)COC(=O)c3ccc4ccccc4n3)cc2N1 the results were YopH PTP inh -19, Arbovirus anti 1, Mtb betalactam 3, Mtb H37Rv -12% and RecA intein inh 0.2.
Cc1cccc(C)c1NC(=O)C(NS(=O)(=O)c1cccs1)c1ccccc1 (centres undefined) was read as YopH PTP inh -16, Arbovirus anti 3, Mtb betalactam 1, Mtb H37Rv 4% and RecA intein inh 0.4.
For CC(=O)Nc1ccc(S(=O)(=O)NCC(=O)OCC(=O)N2CCCc3ccccc32)cc1 the results were YopH PTP inh -34, Arbovirus anti 0, Mtb betalactam 8, Mtb H37Rv -5% and RecA intein inh 0.0.
For CC(=O)Nc1ccc(C2=NN(Cc3nnc(-c4ccccc4)o3)C(=O)SC2)cc1 the results were YopH PTP inh -45, Arbovirus anti -4, Mtb betalactam 8, Mtb H37Rv 3% and RecA intein inh 1.6.
Screening O=C(c1cccc(C(F)(F)F)c1)N(c1ccccn1)C1CCCCC1 returned Arbovirus anti 3, Mtb betalactam -5, Mtb H37Rv 10% and RecA intein inh 1.8.
For COc1nc(OC)nc(Oc2ccc([N+](=O)[O-])cc2Cl)n1 the results were YopH PTP inh -24, Arbovirus anti 3, Mtb betalactam 1, Mtb H37Rv 2% and RecA intein inh 3.3.
`Cc1onc(-c2c(Cl)cccc2Cl)c1/C(N)=N/OC(=O)C(C)(C)C` gave Mtb betalactam -10, Mtb H37Rv -10% and RecA intein inh 0.2.
Screening COc1ccccc1NS(=O)(=O)c1ccc(NC(=O)CCNC(=O)c2ccco2)cc1 returned YopH PTP inh -35, Arbovirus anti 2, Mtb betalactam -1, Mtb H37Rv 1% and RecA intein inh -1.4.
Screening CCOC(=O)c1cnc(SCC(=O)N2CCC(C(N)=O)CC2)nc1N returned Arbovirus anti 11, Mtb betalactam -4, Mtb H37Rv -3% and RecA intein inh 0.5.
Screening COc1ccccc1C(=O)COC(=O)c1cnc(C)cn1 returned Mtb betalactam 4 and RecA intein inh -0.4.
For COc1ccc(NC(=O)NN(C(=O)c2ccccc2)C(C)(C)C)cc1 the results were YopH PTP inh -29, Arbovirus anti -10, Mtb betalactam -3, Mtb H37Rv -3% and RecA intein inh 0.6.
For COc1cc(NC(=O)c2ccc([N+](=O)[O-])o2)ccc1NC(=O)c1cccs1 the results were Arbovirus anti 0, Mtb betalactam 67, Mtb H37Rv 12% and RecA intein inh 3.5.
Screening CC(C)CNC(=O)CN(C1CCCCC1)S(C)(=O)=O returned YopH PTP inh -31, Arbovirus anti -2, Mtb betalactam -5, Mtb H37Rv -12% and RecA intein inh 0.0.
For O=c1[nH]c(N2CCOCC2)nc2ccccc12 the results were Mtb betalactam -1 and RecA intein inh -2.8.
Screening CC(=O)[C@H]1CC[C@H]2[C@@H]3CCC4=CC(=O)CC[C@]4(C)[C@H]3CC[C@]12C returned YopH PTP inh -9, Arbovirus anti -12&-7, Mtb betalactam -5&0, Mtb H37Rv 5%&-2% and RecA intein inh 2.2.
`CCC(=O)Nc1ccc2nc(C3CC3)n(Cc3ccccc3)c(=O)c2c1` gave YopH PTP inh 4, Arbovirus anti -11, Mtb betalactam -3 and RecA intein inh -2.8.
`COC(=O)c1ccc(N2CCN(C(=O)c3ccccc3)CC2)c(NC(C)=O)c1` gave Arbovirus anti -5, Mtb betalactam -1, Mtb H37Rv 4% and RecA intein inh 3.9.
`O=C(Cc1ccc(Cl)c(Cl)c1)Nc1ccccc1N1CCOCC1` gave Arbovirus anti -4, Mtb betalactam -1, Mtb H37Rv 1% and RecA intein inh 0.4.
For CC[C@@H](C)CN1C(=O)N[C@@H](c2ccccc2)C(C(C)=O)=C1C the results were Mtb betalactam -8, Mtb H37Rv -5% and RecA intein inh 2.3.
Screening CC(=O)Nc1ccccc1NC(=O)c1ccc(C)cc1C returned Arbovirus anti 0, Mtb betalactam -5, Mtb H37Rv 4% and RecA intein inh -0.1.
COc1ccccc1NC(=O)CSc1nc2ccccc2nc1N1CC(C)OC(C)C1 (centres undefined) was read as Mtb betalactam 6 and RecA intein inh -1.3.
Screening CCOC(=O)c1cc(CC)sc1/N=C/c1c(O)ccc2ccccc12 returned YopH PTP inh -22, Arbovirus anti 6, Mtb betalactam 18, Mtb H37Rv 1% and RecA intein inh 2.7.

These rows are one share of the data; count on the stated rates, not on these rows.
